Assay outcomes as filed in PubChem.
EPAC1 agonist = Validation qHTS for agonist of cAMP-regulated guanine nucleotide exchange factor 3 (EPAC1); Rap guanine nucleotide exchange factor 3 (Homo sapiens), O95398; EPAC1 Rap1b BODIPY-GDP exchange, fluorescence; Potency, µM, without a hit: max response, positive = active, most hits filed as activators; 16,000 tested, 1% active; AID 1645883, 2021; active means well fitted activation curve with a large enough effect; inconclusive means small, poorly fitted or top-dose-only effect; inactive means no such curve, though single readings can be large or run the other way;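 further: nearly all actives have a fitted effect of over 70% in size; series mostly up to about 76 or 150 µM; scaled to a cAMP control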
Target sequence (O95398 whole entry, looked up): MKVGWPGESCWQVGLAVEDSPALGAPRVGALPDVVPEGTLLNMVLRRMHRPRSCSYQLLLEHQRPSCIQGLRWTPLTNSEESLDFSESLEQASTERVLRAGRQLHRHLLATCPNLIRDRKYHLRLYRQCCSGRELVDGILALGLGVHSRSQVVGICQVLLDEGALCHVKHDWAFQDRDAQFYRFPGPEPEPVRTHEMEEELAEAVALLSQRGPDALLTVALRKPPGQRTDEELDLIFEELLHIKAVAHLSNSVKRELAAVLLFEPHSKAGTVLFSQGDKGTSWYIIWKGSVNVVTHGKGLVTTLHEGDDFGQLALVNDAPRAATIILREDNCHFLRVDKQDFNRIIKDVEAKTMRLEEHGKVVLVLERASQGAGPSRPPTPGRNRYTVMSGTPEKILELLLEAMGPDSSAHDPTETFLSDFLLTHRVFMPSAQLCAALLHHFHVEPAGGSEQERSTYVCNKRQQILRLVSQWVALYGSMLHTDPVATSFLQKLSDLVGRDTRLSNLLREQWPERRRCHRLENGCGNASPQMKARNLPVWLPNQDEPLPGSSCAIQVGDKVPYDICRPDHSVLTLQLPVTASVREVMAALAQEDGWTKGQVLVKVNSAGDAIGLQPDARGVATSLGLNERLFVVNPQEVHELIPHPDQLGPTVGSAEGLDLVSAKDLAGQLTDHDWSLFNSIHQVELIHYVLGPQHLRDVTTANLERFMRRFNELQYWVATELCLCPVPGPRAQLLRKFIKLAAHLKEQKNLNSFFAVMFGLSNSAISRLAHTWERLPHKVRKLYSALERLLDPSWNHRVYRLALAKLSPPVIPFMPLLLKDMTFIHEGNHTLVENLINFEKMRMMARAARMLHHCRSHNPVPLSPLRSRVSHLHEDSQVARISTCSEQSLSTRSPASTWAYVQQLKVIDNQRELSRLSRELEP
* marks the source's active call; other numbers are inactive results; u = inconclusive; & = joins results of further samples; [ ] = remark or other dose. On the % scale 0 is the no-effect control and ±100 the full control effect; potency means the concentration at half of the fitted maximal effect. Some of the compounds tested, so the mix of outcomes need not match the whole.

Sample of the layout, two compounds:
| Structure | EPAC1 agonist |
| --- | --- |
| CC(C)c1ccc2c(c1O)CCC1C3=C(CC[C@]21C)C(=O)OC3 (stereo partly specified) | -17.3% |
| CC(C)=CCN1CC[C@]2(C)c3cc(O)ccc3C[C@H]1[C@H]2C | 0.7% |

This part in full, from the start:
| Structure | EPAC1 agonist |
| --- | --- |
| CC(C)c1ccc2c(c1O)CCC1C3=C(CC[C@]21C)C(=O)OC3 (stereo partly specified) | -17.3% |
| CC(C)=CCN1CC[C@]2(C)c3cc(O)ccc3C[C@H]1[C@H]2C | 0.7% |
| CCC(=O)OC1CCC2C3CCC4=CC(=O)CC[C@@]4(C)C3CC[C@]12C (stereo partly specified) | 11.1% |
| ClC1=C(Cl)C2(Cl)C(CBr)CC1(Cl)C2(Cl)Cl (stereo unspecified) | -19.6% |
| CC(=O)OCC1=C(C(=O)O)N2C(=O)[C@@H](NC(=O)CCC[C@@H](N)C(=O)O)[C@H]2SC1 | -1.7% |
| CCCCCCCCCCCC[N+](C)(C)CCOc1ccccc1 | -56.9%[inhibitor] |
| O=C1C(I)=CC(=C(c2cc(I)c(O)c(I)c2)c2ccccc2C(=O)O)C=C1I | 7.1%&3.3% |
| CN1CCCC2(CCN(C(=O)Oc3ccccc3)CC2)C1 | 23.1% |
| N#C/C(=C/c1ccc(O)c(O)c1)C(N)=S | -9.6% |
| COc1cc(CC(C)N)cc2c1OCO2 (stereo unspecified) | 13.5% |
| CNC(C)CC1CCCCC1 (stereo unspecified) | 28.9% |
| Oc1ccc2c3c1O[C@H]1c4[nH]c5c(c4C[C@@]4(O)[C@@H](C2)N(CC2CC2)CC[C@]314)C[C@]1(O)[C@H]2Cc3ccc(O)c4c3[C@@]1(CCN2CC1CC1)[C@@H]5O4 | -4.1% |
| CN1CCCC2(CCN(C(=O)c3ccncc3)CC2)C1 | -66.4%[inhibitor] |
| c1cncc([C@@H]2CCCCN2)c1 | -9.5% |
| CNC(=O)Oc1ccccc1C(=O)Nc1ccccc1 | -0.5% |

Additional results follow.
| Structure | EPAC1 agonist |
| --- | --- |
| O=C(Nc1cccc(F)c1)N1CCCC2(CCN(C(=O)Oc3ccccc3)CC2)C1 | -40.9%[inhibitor] |
| C[C@](O)(CS(=O)(=O)c1ccc(F)cc1)C(=O)Nc1ccc(C#N)c(C(F)(F)F)c1 | 14.4% |
| COc1ccc(OC)c([C@@H](O)[C@H](C)N)c1 | -12.7% |
| NCC(=O)c1cccc([N+](=O)[O-])c1 | -27.6% |
| S=C=NCc1ccccc1 | -19.1% |
| CCC1(c2ccccc2)CCC(=O)NC1=O (stereo unspecified) | -18.2% |
| C[C@H]1[C@@H]2Cc3ccc(O)cc3[C@@]1(C)CCN2C | 14.4% |
| O=S1OCC2C(CO1)C1(Cl)C(Cl)=C(Cl)C2(Cl)C1(Cl)Cl (stereo unspecified) | -21.4% |
| CCN1C[C@]2(C)CC[C@H](O)[C@@]34C5C[C@@H]6[C@@H](OC)C[C@@](O)(C5[C@H]6O)[C@@H](CC23)[C@@H]14 (stereo partly specified) | -1.9%&7.9% |
| Nc1ccc(CCN2CCN(c3cccc(C(F)(F)F)c3)CC2)cc1 | -1.7%&-8.3% |
| C/C=C(/C)C(=O)OC1CC[C@]2(C)C3CCC4[C@]5(O)CC(O)[C@]6(O)C(CN7CC(C)CCC7[C@]6(C)O)[C@]5(O)C[C@@]42O[C@]13O (stereo partly specified) | u |
| COC(=O)NC(=S)Nc1ccccc1NC(=S)NC(=O)OC | -13.7% |
| C[C@@H]1[C@H]2Cc3ccc(O)cc3[C@]1(C)CCN2C | 4.5% |
| Clc1ccc(C2=CCC[C@H]3CC[C@@H]2N3)cn1 | 5.5% |
| Cc1ccc2cc3c(ccc4ccccc43)c3c2c1CC3 | 6.6% |

More results
| Structure | EPAC1 agonist |
| --- | --- |
| CCc1cc(OC)c(C[C@H](C)N)cc1OC | 0.0% |
| O=C(CC[N+](=O)[O-])OCC1OC(O)C(OC(=O)CC[N+](=O)[O-])[C@@H](OC(=O)CC[N+](=O)[O-])C1OC(=O)CC[N+](=O)[O-] (stereo partly specified) | 27.9% |
| NC(N)=NOCCC(N)C(=O)O (stereo unspecified) | u |
| CP(=O)(O)C1=CCNCC1 | -0.7%&6.1% |
| COC(=O)[C@@H](N)CCCN/C(N)=N/[N+](=O)[O-] | -7.7% |
| O=C(NC(=O)c1c(F)cccc1F)Nc1cc(Cl)c(OC(F)(F)C(F)C(F)(F)F)cc1Cl (stereo unspecified) | -17.3%&-5.6% |
| C/C=C1/C[N@@+]2(C)CC[C@]34C(=C(C=O)[C@H]1C[C@H]32)Nc1ccccc14 | -9.4% |
| CCc1cccc(C)c1N(C(=O)CCl)C(C)COC (stereo unspecified) | -20.8% |
| COc1ccc2c(c1OC)CN1CCc3cc4c(cc3C1C2)OCO4 (stereo unspecified) | -7.5% |
| NC(C(=O)O)c1cc(=O)[nH]o1 (stereo unspecified) | -2.7%&-7.2% |
| C[C@]12Cc3nonc3C[C@@H]1CC[C@@H]1[C@@H]2CC[C@@]2(C)[C@H]1CC[C@]2(C)O | -24.3% |
| CC(N)Cc1ccc(O)cc1 (stereo unspecified) | 28.9% |
| CC1(C)[C@H](C=C(Cl)Cl)[C@H]1C(=O)OCc1c(F)c(F)cc(F)c1F | -6.1% |
| CCOC(=O)[C@]12Cc3ccsc3[C@H]1N(Cc1ccccc1)C(=O)c1ccccc12 | u |
| C/C(O)=C(\C#N)C(=O)Nc1cc(Br)ccc1Br | 2.7% |

Continued.
| Structure | EPAC1 agonist |
| --- | --- |
| CC[C@@H](CO)NC(=O)[C@@H]1C=C2c3cccc4[nH]cc(c34)C[C@H]2N(C)C1 | 6.0%&-23.9% |
| O=c1c2ccccc2[se]n1-c1ccccc1 | 7.8%&20.6%&4.7% |
| C[C@@]12CCC(OS(=O)(=O)O)C[C@@H]1CCC1C2CC[C@]2(C)C(=O)CCC12 (stereo partly specified) | 25.5% |
| C=CCN1CCC2(C)c3cc(O)ccc3C[C@H]1[C@H]2C | 6.6% |
| c1cncc([C@H]2CCCCN2)c1 | -5.7% |
| CC[C@@H](O)C(C[C@@H](C)N(C)C)(c1ccccc1)c1ccccc1 | 8.7% |
| CCOC(=O)c1cncn1C(C)c1ccccc1 (stereo unspecified) | -43.9%[inhibitor] |
| C[C@H]1O[C@@H](O[C@H]2[C@@H](O)C[C@H](O[C@H]3[C@@H](O)C[C@H](O[C@H]4CC[C@@]5(C)[C@H](CC[C@@H]6[C@@H]5CC[C@]5(C)[C@@H](C7=CC(=O)OC7)CC[C@]65O)C4)O[C@@H]3C)O[C@@H]2C)C[C@H](O)[C@@H]1O | -14.2% |
| CCCCCCC(C)OC(=O)COc1ccc(Cl)cc1Cl (stereo unspecified) | 20.2% |
| C[N+]1(C)CCCCC1COC(=O)C(O)(c1ccccc1)c1ccccc1 (stereo unspecified) | 0.7% |
| C[N+]1(CCC(C(N)=O)(c2ccccc2)c2ccccc2)CCCCC1 | 10.6% |
| COc1ccc2c(c1)[C@@]13CCCCC1[C@@H](C2)N(C)CC3 (stereo partly specified) | 15.9% |
| C#CC(C)(O)CC (stereo unspecified) | -5.1% |
| O=C1CCO1 | 19.8%&-13.1% |
| c1ccc2sc(C3(N4CCCC4)CCCCC3)cc2c1 | -8.0% |

(more compounds)
molecule,EPAC1 agonist
C[C@H](NC(=O)[C@@H](N)Cc1ccc(O)cc1)C(=O)NCC(=O)N(C)[C@@H](Cc1ccccc1)C(=O)N[C@H](CO)CCS(C)=O (stereo partly specified),-13.2%
C[N+]1(C)CCc2cc3c(cc2[C@H]1[C@@H]1OC(=O)c2c1ccc1c2OCO1)OCO3,6.2%
CN1C(=O)CCS(=O)(=O)[C@H]1c1ccc(Cl)cc1,12.5%
N#CC(C#N)=Cc1ccc([N+](=O)[O-])c(O)c1,-3.1%&-7.6%
CCCSP(=O)(OCC)SCCC,10.3%
CN1CC[C@@]2(C)c3cc(O)ccc3N(C)C12 (stereo partly specified),9.9%
N=C(N)c1ccc(CS(=O)(=O)F)cc1,-5.3%
CC(N)[C@H](O)c1ccc(O)c(O)c1 (stereo partly specified),-3.3%
COc1cc(CC(C)N)cc(OC)c1OC (stereo unspecified),0.1%
CN1CC[C@@]23CCCCC2C1Cc1ccc(O)cc13 (stereo partly specified),-12.0%
c1ccc(C2CNCc3ccccc32)cc1 (stereo unspecified),-7.5%
NC(N)=NCCCCCCCCCCN=C(N)N,-8.6%&-18.7%
CC1=C(O)C(=O)C=C2C1=CC=C1[C@]2(C)CC[C@@]2(C)C3C[C@](C)(C(=O)O)CC[C@@]3(C)CC[C@@]12C (stereo partly specified),-19.2%
ClC(Cl)(Cl)Cl,-5.1%
CCCC[C@H]1C(=O)O[C@H](C)[C@H](NC(=O)c2cccc(NC=O)c2OC)C(=O)O[C@@H](C)[C@@H]1OC(=O)CC(C)C,-47.1%[inhibitor]

Next part:
molecule,EPAC1 agonist
CCN1C[C@]2(C)CC[C@H](OC)[C@]34C5C[C@@H]6CC[C@@](O)(C5C(=O)O6)C(C13)[C@@H](OC(=O)c1ccccc1)C24,-8.7%
C/C=C1/CN2CC[C@]34C(=C(C=O)[C@H]1C[C@@H]23)Nc1ccccc14,-5.0%
Cc1ccc(C(=O)CN2CCOCC2)cc1,5.5%
CCN1C[C@@]2(COC)C3[C@@H](OC)C4[C@@H]1C3([C@@H]1C[C@]3(O)[C@H](OC(=O)c5ccccc5)[C@@H]1[C@]4(OC(C)=O)[C@@H](O)[C@@H]3OC)[C@H](OC)C[C@H]2O,1.3%
CC12NC(Cc3ccccc31)c1ccccc12 (stereo unspecified),1.8%
O=C1C=C2C(=CCOC2O)O1 (stereo unspecified),-1.8%
CCC1(c2ccc(N)cc2)CCC(=O)NC1=O (stereo unspecified),1.9%&-15.8%&28.7%
CCCCCCCCCCCCCCCC(=O)OC[C@H](COP(=O)([O-])OCC[N+](C)(C)C)OC(C)=O,-8.1%
C[C@H]1O[C@@H](O[C@H]2[C@@H](O)C[C@H](O[C@H]3[C@@H](O)C[C@H](O[C@H]4CC[C@]5(C)C6CC[C@]7(C)[C@@H](C8=CC(=O)OC8)CC[C@]7(O)C6CC[C@@H]5C4)O[C@@H]3C)O[C@@H]2C)C[C@H](O)[C@@H]1O (stereo partly specified),7.5%
CN1C2CC(OC(=O)C(CO)c3ccccc3)CC1C(O)C2 (stereo unspecified),-7.8%
COP(=S)(OC)Oc1ccc(S(N)(=O)=O)cc1,6.9%
CC(=O)N1CC[N+](C)(C)CC1,-5.1%&-14.7%
Clc1ccc(C2CC3CCC2N3)cn1 (stereo unspecified),-7.8%&-15.8%
CN1C(=O)CC(=O)N(c2ccccc2)c2cc(Cl)ccc21,17.5%
CC1C(=O)OC2C(O)C34C5OC(=O)[C@@]3(OC3OC(=O)[C@H](O)[C@]34C(C(C)(C)C)C5O)[C@]12O (stereo partly specified),12.7%

Copied from the list:
CC(=O)N1CC[N+](C)(C)CC1 – EPAC1 agonist = -5.1%&-14.7%
CCN1C[C@]2(C)CC[C@H](OC)[C@]34C5C[C@@H]6CC[C@@](O)(C5C(=O)O6)C(C13)[C@@H](OC(=O)c1ccccc1)C24 – EPAC1 agonist = -8.7%

Further compounds.
molecule,EPAC1 agonist
NCC(CS(=O)(=O)O)c1ccc(Cl)cc1 (stereo unspecified),-18.3%
CC[N+](CC)(CCCNC1=CC(=O)C(NCCC[N+](CC)(CC)Cc2ccccc2)=CC1=O)Cc1ccccc1,-10.4%&3.6%
CN(C)C1C(=O)C(C(N)=O)=C(O)[C@@]2(O)C(=O)C3=C(O)c4c(O)cccc4[C@](C)(O)C3C(O)C12 (stereo partly specified),-9.5%
NP(N)(=O)NC(=O)c1ccc(F)cc1,-16.6%
CCCn1c(=O)c2[nH]c(C3CCCC3)nc2n(CCCOC(=O)c2ccc(S(=O)(=O)F)cc2)c1=O,-5.5%
CCCN1CC[C@@H]2c3cc(O)ccc3CC[C@@H]21,0.2%
CCC1(C2=NCCN2)Cc2ccccc2O1 (stereo unspecified),-4.9%&-19.1%&1.9%
CC(C)NC(=O)N1CCC2(CCNCC2)CC1,-49.9%[inhibitor]
O=C1CCCN1CC#CCN1CCCC1,3.9%&-2.7%&-12.3%&-0.1%
COc1ccc2c(c1OC)C(=O)O[C@@H]2C1c2cc3c(cc2CCN1C)OCO3 (stereo partly specified),-9.7%
Cc1cc(C)cc(C(=O)OC2C[C@H]3CC[C@@H](C2)N3C)c1 (stereo partly specified),-35.6%&4.7%[inhibitor]
C[C@]12N[C@H](Cc3ccccc31)c1ccccc12,6.5%&24.2%&-0.3%
C/C(O)=C(/C#N)C(=O)Nc1cc(Br)ccc1Br,-5.3%
FC(F)(F)c1cccc(N2CCNCC2)c1,u
Clc1ccc(C(c2ccc(Cl)cc2)C(Cl)(Cl)Cl)cc1,8.6%&13.9%

The listing continues.
molecule,EPAC1 agonist
CC1O[C@@H](OC2CC[C@@]3(C=O)C4CC[C@]5(C)C(C6=CC(=O)OC6)CC[C@@]5(O)C4CC[C@]3(O)C2)C(O)C(O)C1O (stereo partly specified),-20.7%
O=C(Nc1ccccc1)N1CCCC2(CCN(C(=O)Oc3ccccc3)CC2)C1,-50.8%[inhibitor]
CC(C)=CCCC1(C)C=Cc2c(O)c3c(c(CC=C(C)C)c2O1)OC12C(CC4CC1C(C)(C)OC2(C/C=C(/C)C(=O)O)C4O)C3=O (stereo unspecified),-151.3%[inhibitor]
CCN(CC)C(=O)/C(Cl)=C(\C)OP(=O)(OC)OC,-4.3%

Some of the entries above, reformatted:
CNC(C)CC1CCCCC1 (stereo unspecified)
  EPAC1 agonist: 28.9%
CC(=O)OCC1=C(C(=O)O)N2C(=O)[C@@H](NC(=O)CCC[C@@H](N)C(=O)O)[C@H]2SC1
  EPAC1 agonist: -1.7%
CCN1C[C@]2(C)CC[C@H](O)[C@@]34C5C[C@@H]6[C@@H](OC)C[C@@](O)(C5[C@H]6O)[C@@H](CC23)[C@@H]14 (stereo partly specified)
  EPAC1 agonist: -1.9%&7.9%
CP(=O)(O)C1=CCNCC1
  EPAC1 agonist: -0.7%&6.1%
